N370S GC: qHTS Assay for Inhibitors and Activators of N370S glucocerebrosidase as a Potential Chaperone Treatment of Gaucher Disease | Lysosomal acid glucosylceramidase (Homo sapiens), P04062 | N370S GC spleen homogenate, 4MU-glucoside fluorescence | Potency, µM (doses to about 59.4 µM), inactives show top-dose activity change, negative = inhibition, most hits filed as inhibitors | 330,000 tested, 0.092% active | AID 2101, 2009;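 also: 0% = full enzyme activity and -100% = no enzyme basal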
TDP1 inh: qHTS Assay for Inhibitors of Tyrosyl-DNA Phosphodiesterase (TDP1); recombinant TDP1, AlphaScreen DNA substrate cleavage; Potency, µM (highest dose often 130 µM), for inactives: at the top dose activity change, negative = inhibition, most hits filed as inhibitors; 350,000 tested, 0.28% active; AID 485290, 2010; also: nearly all actives have a fitted effect of over 40% in size
Target sequence (Q9NUW8 whole entry, looked up): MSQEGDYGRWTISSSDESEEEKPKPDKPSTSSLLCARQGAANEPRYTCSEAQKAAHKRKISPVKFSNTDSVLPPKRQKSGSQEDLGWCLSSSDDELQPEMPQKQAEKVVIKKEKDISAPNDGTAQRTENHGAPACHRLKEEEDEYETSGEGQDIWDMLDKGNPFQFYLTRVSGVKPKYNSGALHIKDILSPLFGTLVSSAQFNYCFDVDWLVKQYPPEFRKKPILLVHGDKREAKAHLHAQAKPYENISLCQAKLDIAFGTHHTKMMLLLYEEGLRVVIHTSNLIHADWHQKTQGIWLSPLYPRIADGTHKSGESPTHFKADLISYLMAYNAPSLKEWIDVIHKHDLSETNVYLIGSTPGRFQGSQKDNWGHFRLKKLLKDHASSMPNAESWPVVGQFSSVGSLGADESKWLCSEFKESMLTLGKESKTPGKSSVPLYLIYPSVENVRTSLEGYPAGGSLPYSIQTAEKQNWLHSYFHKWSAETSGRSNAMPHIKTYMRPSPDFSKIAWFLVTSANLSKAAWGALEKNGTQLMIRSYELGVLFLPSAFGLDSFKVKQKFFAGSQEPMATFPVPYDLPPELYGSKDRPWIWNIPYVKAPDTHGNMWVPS
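Steps: enzyme plus compound, 15 min RT; add biotin/phosphotyrosine-FITC oligonucleotide (15 nM final), react 5 min; add donor/acceptor beads (10 ug/ml final), 10 min; read AlphaScreen. Tdp1 at 1 nM final.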
The depositor's hits bear a star; · = no result given; & = joins results of further samples; [ ] = remark or other dose. Calls follow the shape of the dose curve; as a rule, active = well fitted curve in the direction sought with a large enough effect; inconclusive = small, poorly fitted or top-dose-only effect, or another doubt; inactive = no such curve, though single readings can be large; an effect the other way counts as inactive or inconclusive. Unless noted, % is scaled to controls: 0 for no effect and ±100 for the full control effect; potency is read from the fitted curve at half-maximal effect. A portion of the library, and most or all hits are left out here.

[1] O=C(Nc1ncccn1)C1CCCN1S(=O)(=O)c1ccc(Cl)c(Cl)c1 (stereo unspecified)
[2] CCc1ccc(NC(=O)C(NS(=O)(=O)c2ccc3c(c2)CCN3C(C)=O)C(C)C)cc1 (stereo unspecified)
[3] CC[C@H](C)[C@H](NC(N)=O)C(=O)Nc1ccccc1F
[4] Cc1ccn(CCC(=O)O)n1
[5] CCCCNC(=O)N1CCN(c2ncccn2)CC1
[6] CCN(Cc1ccncc1)C(=S)Nc1c(C)cccc1C

| Assay by compound | 1 | 2 | 3 | 4 | 5 | 6 |
| --- | --- | --- | --- | --- | --- | --- |
| N370S GC | 3% | 1% | 3% | 4% | -1% | -9% |
| TDP1 inh | 2% | 3% | 0% | · | 8% | 3% |

[7] Cc1cc(C2C(C#N)=C(N)OC3=C2C(=O)CC(C)(C)C3)c(C)s1 (stereo unspecified)
[8] Nc1cccc(O)c1
[9] Cc1ccc(-n2c(SCC(=O)Nc3ccc(C(=O)O)cc3)nnc2-c2ccncc2)cc1
[10] COc1ccccc1NC(=O)COC(=O)c1cnc(C)cn1
[11] O=S(=O)(N1CCCCC1)N1CCN(c2ccc(F)cc2)CC1
[12] O=C(COC(=O)Cc1ccsc1)NCc1ccccc1

| Assay by compound | 7 | 8 | 9 | 10 | 11 | 12 |
| --- | --- | --- | --- | --- | --- | --- |
| N370S GC | 8% | 1% | 3% | 1% | 3% | 6% |
| TDP1 inh | -2% | 1%&15% | · | 5% | 6% | -5% |

[13] Cc1ccc(OCC(O)CN2CCN(c3ccc(C)cc3)CC2)cc1 (stereo unspecified)
[14] Cc1nc2ccccc2n1C(=O)c1ccc(Cl)cc1[N+](=O)[O-]
[15] C[N+]1(C2CCC3CCCC2C3O)CCCC1 (stereo unspecified)
[16] COc1ccc(Cc2nnc(NC(=O)Nc3ccccc3F)s2)cc1
[17] O=C(Cc1ccccc1)N/N=C/C=C/c1cccc([N+](=O)[O-])c1
[18] C/C=C/CSc1nc2c(c(=O)[nH]c(=O)n2C)n1Cc1ccc(C)cc1

| Assay by compound | 13 | 14 | 15 | 16 | 17 | 18 |
| --- | --- | --- | --- | --- | --- | --- |
| N370S GC | -7% | 4% | -12% | 0% | -3% | 8% |
| TDP1 inh | 6% | 1% | 5% | · | -1% | 11% |

By substructure, the entries above with a halogen
[1] O=C(Nc1ncccn1)C1CCCN1S(=O)(=O)c1ccc(Cl)c(Cl)c1 (stereo unspecified)
[3] CC[C@H](C)[C@H](NC(N)=O)C(=O)Nc1ccccc1F
[11] O=S(=O)(N1CCCCC1)N1CCN(c2ccc(F)cc2)CC1
[14] Cc1nc2ccccc2n1C(=O)c1ccc(Cl)cc1[N+](=O)[O-]
[16] COc1ccc(Cc2nnc(NC(=O)Nc3ccccc3F)s2)cc1

| Assay by compound | 1 | 3 | 11 | 14 | 16 |
| --- | --- | --- | --- | --- | --- |
| N370S GC | 3% | 3% | 3% | 4% | 0% |
| TDP1 inh | 2% | 0% | 6% | 1% | · |

Later entries:
[19] O=C(NCC(c1ccc(F)cc1)N1CCOCC1)c1cccnc1Sc1ccc(Cl)cc1 (stereo unspecified)
[20] Cc1cc(C)c2c(N)c(C(=O)C(C)(C)C)sc2n1
[21] Fc1cccc(Cc2noc(CN3CCN(c4cnccn4)CC3)n2)c1
[22] COc1cccc(-n2c(Cc3cc(=O)[nH]c(=O)[nH]3)nnc2SCc2cccnc2)c1
[23] CC(C)Oc1cccc(C(=O)C2CCCN(S(=O)(=O)C(C)C)C2)c1 (stereo unspecified)
[24] COc1ccc(N(C(=O)c2snc(C(N)=O)c2N)C(C(=O)NC2CCCCC2)c2ccc(F)cc2)c(OC)c1 (stereo unspecified)

| Assay by compound | 19 | 20 | 21 | 22 | 23 | 24 |
| --- | --- | --- | --- | --- | --- | --- |
| N370S GC | -12% | 5% | 3% | -5% | 25% | 18% |
| TDP1 inh | 10% | 2% | 5% | 6% | -5% | · |

[25] Nc1nnc(SCC(=O)c2ccc3c(c2)NC(=O)CO3)s1
[26] CC1(C)CC(=O)C(C#N)=C(NCCCO)C1
[27] Cc1ccc(NC(=O)CCc2ccc(S(=O)(=O)N3CCOCC3)cc2)c(O)c1
[28] O=C(COC(=O)Cc1ccsc1)NNC(=O)c1ccccc1
[29] O=C(C[n+]1cccc(/C=N/O)c1)N1CCCCCC1
[30] O=C(/C=C/c1ccc2c(c1)OCO2)NCc1ccc(F)cc1

| Assay by compound | 25 | 26 | 27 | 28 | 29 | 30 |
| --- | --- | --- | --- | --- | --- | --- |
| N370S GC | 0% | 7% | · | · | 5% | 3% |
| TDP1 inh | 3% | 8% | 1% | -1% | 5% | 1% |

[31] O=C(Nc1cccc(S(=O)(=O)N2CCCCC2)c1)c1ccc(S(=O)(=O)C(F)F)cc1
[32] Cc1sc(NC(=O)C2=COCCO2)c(C#N)c1C
[33] CNC(=S)NNS(=O)(=O)c1ccc(OC)cc1OC
[34] Cc1cccc(N(C(=O)CNC(=O)c2ccco2)C(C(=O)NC2CCCCC2)c2cccnc2)c1 (stereo unspecified)
[35] CCCC(=O)Nc1sc2c(c1C(=O)OC)C(C(=O)OC)CC2 (stereo unspecified)
[36] COc1cc(C(=O)NCCc2sc(-c3ccc(C)cc3)nc2C)cc(OC)c1OC

| Assay by compound | 31 | 32 | 33 | 34 | 35 | 36 |
| --- | --- | --- | --- | --- | --- | --- |
| N370S GC | -6% | -3% | -1% | 4% | 8% | · |
| TDP1 inh | 7% | 7% | -3% | -16% | 4%[56.1 µM] | 2% |

[37] C=C(C)C(=O)N1CC2(CC(c3cccc(NC(=O)CCCCC)c3)=NO2)C[C@H]1C(N)=O (stereo partly specified)
[38] C/C(=N\NC(=S)Nc1ccc(F)cc1)c1ccc2c(c1)OCCO2
[39] CC(=O)c1c(C)[nH]c(C(=O)Nc2cccc(S(=O)(=O)N3CCCC3)c2)c1C
[40] O=C1CC(N2CCN(c3ccc(S(=O)(=O)N4CCOCC4)cc3)CC2)C(=O)N1Cc1ccccc1 (stereo unspecified)
[41] Nc1nonc1-n1nnc(C(=O)N/N=C/c2cccnc2)c1-c1cccs1
[42] COC(=O)[C@@H]1CCCN1Cc1c(C(=O)N2CCCCC2)nc2c(C)cccn12

| Assay by compound | 37 | 38 | 39 | 40 | 41 | 42 |
| --- | --- | --- | --- | --- | --- | --- |
| N370S GC | -3% | 3% | · | 1% | -5% | -2% |
| TDP1 inh | 5% | 9% | 1% | 7% | 0% | 0% |

[43] Cc1ccc(-c2noc(CCC(=O)NCC3CCN(Cc4cccc(C)c4)CC3)n2)cc1
[44] CN(C(=O)Nc1ccc(Cl)c(Cl)c1)c1ccccc1C(=O)O
[45] CCCCN(C(=O)Cc1ccc2c(c1)OCCO2)c1c(N)n(CC(C)C)c(=O)[nH]c1=O
[46] NC(=O)c1ccc(NC(=O)COC(=O)/C=C/c2ccc3c(c2)OCO3)cc1
[47] Cc1nc2nc(NC(=O)c3ccco3)[nH]n2c(=O)c1C
[48] CCN(CC)CCCN1C=C2C(=O)C(C)(OC(=O)C3CCCC3)C(=O)C(c3ccccc3)=C2C=C1CCCC(=O)OC (stereo unspecified)

| Assay by compound | 43 | 44 | 45 | 46 | 47 | 48 |
| --- | --- | --- | --- | --- | --- | --- |
| N370S GC | -10% | 22% | 0% | 25% | -2% | -1%[12.8 µM] |
| TDP1 inh | 7% | 3% | -1% | 10% | 4% | -6%[12.3 µM] |

Profiles as entered above.
O=C(Nc1ncccn1)C1CCCN1S(=O)(=O)c1ccc(Cl)c(Cl)c1 (stereo unspecified) across the screens: N370S GC = 3%; TDP1 inh = 2%
CNC(=S)NNS(=O)(=O)c1ccc(OC)cc1OC across the screens: N370S GC = -1%; TDP1 inh = -3%
O=C(COC(=O)Cc1ccsc1)NCc1ccccc1 across the screens: N370S GC = 6%; TDP1 inh = -5%

Additional records follow.
[49] Cc1cc(C(=O)NNC(=O)c2cccc(N(C)C)c2)c(C)o1
[50] CCOC(=O)N1CCN(C(=O)CSc2nc3c([nH]c4ccccc43)c(=O)n2CCOC)CC1
[51] COc1ccccc1NC(=O)Cn1cc(C(=O)c2ccco2)c2ccccc21
[52] O=C(C/C=N\OCc1ccc(Cl)cc1Cl)Nc1ccccc1
[53] CC1Oc2ccccc2N(CC(=O)NCCCN2CCOCC2)C1=O (stereo unspecified)
[54] NNC(=O)[C@H](Cc1ccccc1)NC(=O)NCCc1ccccc1

| Assay by compound | 49 | 50 | 51 | 52 | 53 | 54 |
| --- | --- | --- | --- | --- | --- | --- |
| N370S GC | -3% | -5% | 23% | 8% | -12% | -1% |
| TDP1 inh | 3% | 3% | 0% | -10% | · | · |

[55] COCCNC(=O)C(OC(=O)c1cccs1)c1ccccc1 (stereo unspecified)
[56] Cc1nnc(SCC(=O)NC(C)(C)C)n1C1CCCCC1
[57] Cc1ccc(C)c(N2C(=O)CN=C2Nc2ccccc2Cl)c1
[58] Cc1ccc(NC(=O)C2C3CCCCC32)cc1[N+](=O)[O-] (stereo unspecified)
[59] CC(C)(C)n1cnc2cc(NC(=O)c3ccccc3)ccc21
[60] Cc1ccc(NC(=O)C2CCN(S(=O)(=O)c3cccs3)CC2)cc1

| Assay by compound | 55 | 56 | 57 | 58 | 59 | 60 |
| --- | --- | --- | --- | --- | --- | --- |
| N370S GC | 27% | -10% | 23% | 1% | -6% | 12% |
| TDP1 inh | 1% | 3% | 5% | 8% | 6% | -6%&3% |

[61] Cn1c(=O)c2ccccc2n(CC(=O)Nc2ccc3c(c2)OCCO3)c1=O
[62] CCn1c(N)c(C(=O)NCCOC)sc1=S
[63] CCOc1ccc(NC2=CC(=O)CCC2)cc1
[64] CCOC(=O)C1=C(C)NC2=C(C(=O)CCC2)C1c1cccnc1 (stereo unspecified)
[65] CCC/C(=N\NC(=O)Cc1csc(N2CCOCC2)n1)c1ccccc1
[66] Cc1cc(C)nc(/N=C(\N)Nc2cc([N+](=O)[O-])ccc2C)n1

| Assay by compound | 61 | 62 | 63 | 64 | 65 | 66 |
| --- | --- | --- | --- | --- | --- | --- |
| N370S GC | -1% | 2% | -1% | -1% | 13% | 1% |
| TDP1 inh | -7% | 8% | · | 4% | 5% | -2% |

[67] COc1ccc(NC(=O)NC2CCCc3ccccc32)cc1OC (stereo unspecified)
[68] CCCCCn1c(=O)c(C(=O)OCC)c(Cl)c2ccccc21
[69] C=CCN1C(=O)C(O)(CC(=O)c2ccccc2)c2ccccc21 (stereo unspecified)
[70] COc1ccc(CNc2ncc(-c3ccccc3)n2C)c2ccccc12
[71] CCOC(=O)C1(C)NC(c2ccco2)C2C(=O)N(C)C(=O)C21 (stereo unspecified)
[72] CC(=O)c1ccc(OC(=O)C2c3ccccc3Oc3ccccc32)cc1

| Assay by compound | 67 | 68 | 69 | 70 | 71 | 72 |
| --- | --- | --- | --- | --- | --- | --- |
| N370S GC | -4% | 5% | -10% | -25% | -13% | 7% |
| TDP1 inh | -5% | · | 4% | · | -6% | 2% |

[73] CCN(C(=O)CSc1nnc(-c2ccncc2)n1-c1ccccc1)C1CCS(=O)(=O)C1 (stereo unspecified)
[74] OCC1N=C(c2ccccn2)OC1c1ccccc1 (stereo unspecified)
[75] CC(=O)Oc1ccccc1C(=O)Nc1ccccc1C(=O)N1CCCCC1
[76] CC(=O)Nc1ccc(S(=O)(=O)NC(C)C(=O)OCCOc2ccc(F)cc2)cc1 (stereo unspecified)
[77] CCCC(c1nnnn1Cc1ccco1)N1CCN(C2CCCC2)CC1 (stereo unspecified)
[78] COc1cccc(C(=O)NCCC2=CCCCC2)c1

| Assay by compound | 73 | 74 | 75 | 76 | 77 | 78 |
| --- | --- | --- | --- | --- | --- | --- |
| N370S GC | -2% | 5% | -2% | · | 4% | 23% |
| TDP1 inh | 1% | -1% | 3% | 1% | 4% | 0% |

[79] CS(=O)(=O)n1nc(-c2ccc(Cl)cc2)nc1N
[80] O=C(c1ccc(F)cc1)n1nc(-c2cccnc2)nc1NCc1ccc(F)cc1
[81] O=C(Nc1ccc2nc3n(c(=O)c2c1)CCCCC3)c1ccccn1
[82] CCOc1ccccc1Nc1nc(N)nc(CN(C)C2CCCCC2)n1
[83] O=C(c1ccc(S(=O)(=O)Nc2cccc(C(F)(F)F)c2)cc1)N1CCC1
[84] CC(C)Oc1ccc(C(=O)NC(=S)Nc2ccc(Cl)c(C(=O)O)c2)cc1

| Assay by compound | 79 | 80 | 81 | 82 | 83 | 84 |
| --- | --- | --- | --- | --- | --- | --- |
| N370S GC | -2% | · | -5% | -8% | -22% | 1% |
| TDP1 inh | 0% | -9% | 3% | 4% | 5% | 3% |

[85] O=C(c1cccs1)N(Cc1cc2ccccc2[nH]c1=O)CC1CCCO1 (stereo unspecified)
[86] Nc1nonc1-n1nnc(C(=O)N/N=C/c2cccc(Cl)c2)c1CSc1ccc(Cl)cc1
[87] CCC(C)NCCC(=O)Nc1ccc(Cl)c(S(=O)(=O)Nc2ccc(Cl)cc2)c1 (stereo unspecified)
[88] Cc1ccc(S(=O)(=O)N(C)c2nonc2C)cc1
[89] C/C(O)=C(\C#N)c1nc2ccccc2[nH]1
[90] CCOC(=O)COc1cc(N)c(Cl)cc1Cl
[91] Cc1cccn2c(=O)nc(SCC(=O)NCCc3ccccc3)nc12
[92] COc1ccc(CS(=O)(=O)CC2(O)CCN(C(=O)c3cccc(C(F)(F)F)c3)CC2)cc1

| Assay by compound | 85 | 86 | 87 | 88 | 89 | 90 | 91 | 92 |
| --- | --- | --- | --- | --- | --- | --- | --- | --- |
| N370S GC | -4% | 4% | -15% | 0%[2.35 µM] | · | -1% | -5% | -3% |
| TDP1 inh | -5%[0.0935 µM] | 11% | 2% | -2% | 2% | 2% | · | 0% |

High-throughput results: PubChem, National Center for Advancing Translational Sciences (NCATS)
